# Bioassay records: PubChem BioAssay, National Center for Advancing Translational Sciences (NCATS)
# PKM2 act – PKM2 (human) enzyme activation | 260,000 tested, 0.34% active | P14618 | Potency, µM (series often up to 57.5 µM), for inactives: at the highest dose activation, usual class: activators | purified PKM2, Kinase-Glo ATP luminescence, activation; response scale: 0% is enzyme alone, no compound | AID 1631; note: potency is the fitted concentration of half-maximal effect; % is set by controls: 0 for no effect and ±100 for the full control effect; nearly all actives have a fitted effect of over 55% in size
#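 Purified hPK-M2 (>95%) run at intermediate activity with 0.1 mM ADP and 0.5 mM PEP in 50 mM imidazole pH 7.2, KCl, MgCl2; 1 h room temperature. ATP formed read by Kinase-Glo luminescence; normalized to uninhibited and no-enzyme controls.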
# USP2a inh – blocks human ubiquitin-specific protease USP2a | 330,000 tested, 0.01% active | Potency, µM (top dose mostly 38.3 µM), for the others: top-dose activity change, negative = inhibition, actives largely listed as inhibitors | USP2 core, Ub-CHOP2 coupled fluorogenic reporter, 485/531 | O75604 | AID 463254;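 note: potency is the fitted concentration of half-maximal effect; plate controls were DMSO wells for no effect and full inhibition by NEM control for full effect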
#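 USP2 core (10nM final) preincubated 30min RT with compound in 20mM Tris-HCl pH 8.0, 2mM CaCl2, 2mM beta-mercaptoethanol, 0.05% CHAPS; 25nM Ub-CHOP2 plus 25nM reporter substrate added, fluorescence (Ex485/Em531) read after 60min.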
# FBPA coupling cs – inhibits coupling enzyme system, counter-screen for aldolase hits; 290,000 tested, 0.67% active; AID 2472; activity change, negative = inhibition, % at 58.2 µM, hits read low; coupling enzyme system counterscreen, AmpLite Red fluorescence; in the data active = activity change below about -30%; note: % is set by controls: 0 for no effect and ±100 for the full control effect
#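 Counterscreen lacking aldolase: glyceraldehyde-3-phosphate coupling-enzyme reagent preincubated 10 min at RT with compound (at 57.5 uM final), then substrate/coupling system with AmpLite Red added; fluorescence read at 525/598 nm after 20 min RT.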
# Giardia killer – Giardia lamblia killing. Giardia lamblia trophozoite viability. activity change, % at 7.66 µM, hits read low. 340,000 tested, 0.15% active. AID 540267; in the data active = activity change below about -80%; inconclusive = between about -30% and that limit;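 note: parasites exposed to compound for two days anaerobically before the ATP read; % is set by controls: 0 for no effect and ±100 for the full control effect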
#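 Media and compound were dispensed first, then trophozoites at 100 cells/well; plates sat 48 hrs at 37 deg C without oxygen before ATP luminescence reagent was added and read after 15-30 min at room temperature.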
# Menin MLL FP TR – inhibitors of human menin-MLL interaction, mutant MLL peptide; Potency, µM (titrated, usually from 61.6 µM), without a hit: at the highest dose FP activity change, negative = inhibition, actives largely listed as inhibitors; Menin + Texas Red MLL mutant peptide, fluorescence polarization; AID 1768; 270,000 tested, 0.23% active; O00255; active = well fitted inhibition curve with a large enough effect in the polarisation, with a control signal flat, not every such curve was filed as active; inconclusive = small, poorly fitted or top-dose-only effect, or effect the other way, or a change in a side signal; inactive = no such curve, though single readings can be large or run the other way; the % refers to the polarisation; note: potency is the fitted concentration of half-maximal effect; % of control where 0% means no effect; many of its hits are not listed in these tables
# Target sequence (O00255 whole entry, looked up): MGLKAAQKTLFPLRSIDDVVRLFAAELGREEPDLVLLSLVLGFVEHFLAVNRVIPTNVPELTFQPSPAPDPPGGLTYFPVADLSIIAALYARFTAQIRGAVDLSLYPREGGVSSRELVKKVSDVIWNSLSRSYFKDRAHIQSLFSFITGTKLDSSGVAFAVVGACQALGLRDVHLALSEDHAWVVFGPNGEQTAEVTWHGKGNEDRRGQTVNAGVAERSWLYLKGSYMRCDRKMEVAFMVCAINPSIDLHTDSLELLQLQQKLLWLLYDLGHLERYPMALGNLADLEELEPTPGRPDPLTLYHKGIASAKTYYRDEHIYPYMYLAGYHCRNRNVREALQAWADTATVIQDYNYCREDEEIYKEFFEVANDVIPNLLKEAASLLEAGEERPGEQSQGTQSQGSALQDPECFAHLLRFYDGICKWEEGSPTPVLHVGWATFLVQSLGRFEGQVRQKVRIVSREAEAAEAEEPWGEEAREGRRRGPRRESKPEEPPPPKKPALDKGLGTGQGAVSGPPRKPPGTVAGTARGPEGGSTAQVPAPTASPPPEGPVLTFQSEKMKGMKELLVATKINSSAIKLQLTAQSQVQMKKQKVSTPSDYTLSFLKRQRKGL
# MLL CXXC-DNA inh – blocks binding of human MLL CXXC domain to DNA. Q03164. MLL-CXXC / FITC-HOXA9 DNA fluorescence polarization. Potency, µM (doses to about 115 µM), for inactives: at the highest dose activity change, negative = inhibition, most hits filed as inhibitors. 290,000 tested, 0.037% active. AID 2662; active = well fitted inhibition curve with a large enough effect in the polarisation, with a control signal flat, not every such curve was filed as active; inconclusive = small, poorly fitted or top-dose-only effect, or effect the other way, or a change in a side signal; inactive = no such curve, though single readings can be large or run the other way; the % refers to the polarisation; note: potency is the fitted concentration of half-maximal effect
#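 Fluorescence polarization: 7 uM MLL-CXXC (stock) preincubated 5 min with compounds, then 50 nM fluorescein-HOX-A9 DNA (stock) added; 30 min ambient. Buffer 50 mM Tris-HCl pH 7.5, 50 mM NaCl, 1 mM DTT, 0.05% BSA.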
# TRPV1 agonist – human TRPV1 agonism; activation, % at 8.33 µM; 320,000 tested, 0.19% active; AID 540275; TRPV1-expressing cells, Fluo-8 calcium influx, agonist mode; in the data active = activation above about 80%; inconclusive = between about 30% and that limit; note: 0% is about no effect
#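 Cells expressing TRPV1 were dye-loaded with Fluo-8 and read kinetically: 10 s baseline, 3 min after compound (agonist portion), then 2 min after EC20 capsaicin (allosteric enhancer portion). Calcium-bound dye fluorescence at 480/520 nm.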
# B2AR arrestin – recruits beta-arrestin to the human beta2-adrenergic receptor; P07550; beta-arrestin recruitment to beta2AR, cell-based reporter; Potency, µM (top dose mostly 46.1 µM), for the others: top-dose activation, most hits filed as activators; 330,000 tested, 0.02% active;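 note: potency is the fitted concentration of half-maximal effect; 0% = DMSO controls and full agonism = EC100 isoproterenol or metaproterenol; nearly all actives have a fitted effect of over 65% in size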
# Target sequence (P07550 whole entry, looked up): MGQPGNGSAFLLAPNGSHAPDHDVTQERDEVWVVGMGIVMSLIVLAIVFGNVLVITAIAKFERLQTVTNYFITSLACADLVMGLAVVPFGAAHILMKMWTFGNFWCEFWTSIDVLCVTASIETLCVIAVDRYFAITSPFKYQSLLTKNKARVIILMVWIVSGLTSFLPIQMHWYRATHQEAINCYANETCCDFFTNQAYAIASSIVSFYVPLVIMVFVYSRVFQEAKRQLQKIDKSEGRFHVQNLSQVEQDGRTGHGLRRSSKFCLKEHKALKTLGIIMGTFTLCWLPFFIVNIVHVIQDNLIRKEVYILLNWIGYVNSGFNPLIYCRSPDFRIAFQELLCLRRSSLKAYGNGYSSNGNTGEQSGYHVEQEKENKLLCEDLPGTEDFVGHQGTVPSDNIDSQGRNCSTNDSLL
# GALK inh – inhibitors of human galactokinase. 270,000 tested, 0.007% active. Potency, µM (series often up to 57.5 µM), without a hit: top-dose activity change, negative = inhibition, hits mostly inhibitors. Purified GALK, Kinase-Glo residual ATP luminescence. AID 1868; note: potency is the fitted concentration of half-maximal effect; % is set by controls: 0 for no effect and ±100 for the full control effect
#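 Galactose (100 uM) and ATP (35 uM) were turned over by 5 nM GALK for 1 h at RT. Kinase-Glo Plus then converted the remaining ATP into a luminescent signal.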
# Active calls of the source: *; ? = inconclusive; . = no result given; & = joins results of further samples; [ ] = remark or other dose. Unless noted, calls come from the whole dose curve; as a rule, active = well fitted curve in the direction sought with a large enough effect; inconclusive = small, poorly fitted or top-dose-only effect, or another doubt; inactive = no such curve, though single readings can be large; an effect the other way counts as inactive or inconclusive. These rows are one share of the data; count on the stated rates, not on these rows.
SMILES,PKM2 act,USP2a inh,FBPA coupling cs,Giardia killer,Menin MLL FP TR,MLL CXXC-DNA inh,TRPV1 agonist,B2AR arrestin,GALK inh
COc1ccc(Cl)cc1NC(=O)C1CCCN(c2cc(C)nc3ncnn23)C1 (stereo not given),2%,3%,-2,8,-1%,8%,0,0.0%,1%
O=C(c1ccccn1)N1CC=C(c2ccccc2)CC1,6%,-2%,-3,3,-5%,11%,?,-0.5%,3%
CCN=C1S/C(=C\c2ccc(N3CCOCC3)cc2C)C(=O)N1CC,-2%,-6%,3,-23,-1%,.,24,-0.7%,0%
CC(=O)Nc1ccc(S(=O)(=O)NCCN2CCOCC2)cc1,-7%,2%,0,-10,16%,-4%,1,0.3%,2%
CCC1CCCCN1C(=O)Cn1nc([N+](=O)[O-])c(Cl)c1C (stereo not given),-2%,3%,2,-13,.,0%,2,0.5%,-1%
COc1ccc(C2NC3=C(CCC3)C3(C#N)C(OC)(OC)N=C(N)C23C#N)cc1 (stereo not given),-4%,4%,3,14,3%,-2%,-2,0.8%,0%
CC(C)CC(=O)NC1(C(F)(F)F)C(=O)N(CC(C)C)C2=C1C(=O)CC(C)(C)C2 (stereo not given),2%,-3%,3,-8,4%,1%,2,-1.0%,0%
CC(/C=C/c1ccc2c(c1)OCO2)=N/NC(=O)COc1ccc(C)cc1,-7%,2%,2,2,?,.,1,-0.5%,1%
c1csc(-c2nnc(COc3ccc4c(c3)OCO4)o2)c1,3%,2%,0,3,14%,2%,10,-0.4%,-3%
Cc1cc(C)nc(NS(=O)(=O)c2ccc(N3C(=O)C4C5C=CC(C5)C4C3=O)cc2)n1 (stereo not given),-5%,1%,0,-5,5%,1%,-2,-1.1%,2%
NC(=O)c1cccc(-c2cccc(OC(=O)NC3CCCCC3)c2)c1,1%,-1%,-2&-2,1,-4%&4%,6%,0,-0.2%,-3%
CCN(CCCc1ccccc1)CCCc1ccccc1,-6%,-1%,-2&2&1,1,?,1%,4,-0.6%,-3%
Cc1cc2ncn(/N=C/c3ccc([N+](=O)[O-])s3)c2cc1C,-4%,0%,-4,-98*,?,.,2,-0.9%,1%
CC(C)(C)c1ccc(CSc2nc(N)cc(=O)[nH]2)cc1,.,2%,3,25,17%,-3%,-3,0.0%,3%
O=C(NCc1ccncc1)C(=O)NCC1OCCN1S(=O)(=O)c1ccc(F)cc1 (stereo not given),-6%,2%,.,32[activator],.,-10%,-4,-1.0%,0%
CC(NC(=O)COC(=O)c1ccccc1SCC(=O)N1CCCC1)c1ccccc1 (stereo not given),.,0%,.,-13,.,.,2,-0.3%,.
CC(C)OCCCn1c(=S)[nH]c2ccc(N3CCOCC3)cc2c1=O,0%,0%,-44*,8,?,.,-15,-0.1%,2%
CCOC(=O)C1=C[C@@]2(CC)CCCN3CCc4c(n1c1ccccc41)[C@H]32,.,.,0&1,.,-19%&-11%[24.8 µM],.,.,.,.
CC[C@H](C)C(=O)O[C@@H]1C[C@H](C)C=C2C=C[C@H](C)[C@@H](CC[C@H]3C[C@@H](O)CC(=O)O3)[C@H]21,.,.,2,.,-16%[24.8 µM],.,.,.,.
CCOc1ccc(S(=O)(=O)Nc2ccc(C(=O)N3CCC3)cc2)cc1,.,2%,.,4,.,.,-2,-0.6%,.
CC1C(c2ccccc2)N(C)C(c2ccccc2)C(C)C1(O)C#Cc1ccccc1 (stereo not given),-8%,3%,-6,-3,-5%,13%,9,-0.6%,-2%
Cc1ccc(S(=O)(=O)CCC(=O)Nc2cccc(S(=O)(=O)N3CCCCCC3)c2)cc1,.,0%,.,-16,.,.,5,-0.1%,.
CC(=O)c1sc(NC(=O)C2CCN(C(=O)c3ccc(F)cc3)CC2)nc1-c1ccccc1,.,-4%,.,-6,.,.,-4,-0.2%,.
Cc1ccccc1NC(=O)CCC(=O)N/N=C/c1cccnc1,-12%,-4%,2,-14,-3%,6%,-2,-0.9%,1%
Cc1noc(C(=O)Nc2cccc(O)c2)c1Cl,2%,-1%,2,-9,.,4%,11,-0.8%,.
# (listing goes on)
SMILES,PKM2 act,USP2a inh,FBPA coupling cs,Giardia killer,Menin MLL FP TR,MLL CXXC-DNA inh,TRPV1 agonist,B2AR arrestin,GALK inh
CC1C(=O)N2CCCc3cc(S(=O)(=O)NCc4ccccc4Cl)cc1c32 (stereo not given),.,4%,.,-3,.,5%,5,-1.0%,1%
CC(C)Sc1nc(O)c(Cc2ccccc2)c(=O)[nH]1,10%,6%,-3,-7,1%,2%,16,-0.4%,0%
CCCC1CC(C(=O)NC(C(C)Cl)C2OC(SC)C(O)C(O)C2O)N(C)C1 (stereo not given),3%,-1%,1,7,-4%,-18%,4,0.1%,.
O=C(CSc1n[nH]c(-c2ccccc2O)n1)N1CCOCC1,7%,0%,0,-6,-7%,-18%,15,-0.2%,0%
O=C(NC1CCCCC1)N1CCN(c2ccccc2Cl)CC1,3%,1%,1,7,-5%,2%,?,0.3%,-2%
FC(F)(F)c1cc(-c2ccccc2)nc(N2CCOCC2)n1,5%,0%,1,1,-3%,8%,4,0.1%,-3%
CCOC(=O)N1CCN(C(=O)C2CCN(S(=O)(=O)N3CCC4(CC3)OCCO4)CC2)CC1,.,-2%,.,-7,.,18%,-2,0.3%,6%
O=C(O)COc1ccc(/C=C/c2nc3ccc([N+](=O)[O-])cc3s2)cc1,4%,2%,0,?,.,.,3,-0.8%,-4%
Fc1ccc(N2CCN(Cc3ccccn3)CC2)cc1,-2%,-1%,-3,-4,16%,7%,-1,0.1%,-1%
COc1cc(CN2CCc3ccccc3C2)ccc1O,-2%,0%,1,3,.,2%,.,0.1%,-1%
CCN(CC)CCNC(=O)c1ccc(NC(C)=O)cc1,-1%&2%,-1%&7%,1&-1&3,28&-20,-2%&2%&-9%&17%,3%&28%&-3%&16%,1&1,-0.8%&-0.5%,-1%&4%
O=C(Cn1cncn1)NCc1ccccc1Br,-6%,-1%,0,-12,8%,-1%,-1,-0.1%,1%
Cn1c(SCC(=O)Nc2ccc(C(=O)O)cc2)nc2scc(-c3ccccc3Cl)c2c1=O,.,1%,.,5,.,.,.,0.1%,.
CS(=O)(=O)n1nc(-c2ccccc2)nc1N,4%,-1%,2,21,3%,3%,2,-0.1%,1%
O=C(CCCn1c(=S)[nH]c2cc3c(cc2c1=O)OCO3)N1CCN(c2ccc(Cl)cc2)CC1,-1%,0%,2,-15,5%,9%,-2,-0.3%,-2%
NC(=O)CC(NC(=O)Cc1ccc(Br)cc1)c1ccc(NCCc2ccc(Cl)cc2)c([N+](=O)[O-])c1 (stereo not given),2%,3%,0,11,.,-4%,1,-0.4%,-1%
COc1ccccc1CN1C[C@@H]2C[C@@H](c3ccc(C)c(C)c3)N3CCC[C@@]23C1=O,-2%,-2%,-1,-1,19%,0%,6,1.7%,4%
Cn1nc(C(=O)NNC(=O)c2ccc(Cl)cc2)ccc1=O,.,0%,.,-9,.,.,1,0.5%,.
COc1ccc(OCC(=O)NNC(=O)c2ccccn2)cc1,-2%,0%,-3,7,-16%,-9%,1,-0.8%,-1%
O=C1OC(/C=C/c2ccccc2)=NC/1=C/C=C/c1ccccc1,8%,2%,4,-9,6%,-17%,-1,-0.4%,0%
O=C1C2C3C=CC(CC3)C2C(=O)N1c1cccc(C(F)(F)F)c1 (stereo not given),-3%,1%,1,2,8%,-28%,23,3.9%,0%
CCC(C)C(=O)OC1CC(C)C=C2C=CC(C)C(CCC3CC(O)CC(=O)O3)C21 (stereo not given),.,.,3,.,-7%,.,.,.,.
CCCCCCCC[n+]1c(C)n(-c2ccccc2)c2ccc(NC(C)=O)cc21,0%,2%,-1,-13,-19%,-3%,3,-0.4%,-1%
N#Cc1cc2c(nc1SCC(=O)O)CCCC2,-5%,1%,14,-11,.,-1%,-2,-0.1%,-2%
CCN1CCCC1CNC(=O)c1ccc2c(c1)NC(=O)/C(=C\c1ccc(OC)c(OC)c1)S2 (stereo not given),.,0%,.,8,.,?,-1,4.2%,6%
# The list continues.
SMILES,PKM2 act,USP2a inh,FBPA coupling cs,Giardia killer,Menin MLL FP TR,MLL CXXC-DNA inh,TRPV1 agonist,B2AR arrestin,GALK inh
COCC(C)n1c(C)cc(C(=O)CSc2ncccn2)c1C (stereo not given),-5%,2%,0,9,?,.,0,0.2%,0%
OC[C@H]1O[C@H](OCCc2ccc(O)cc2)[C@H](O)[C@@H](O)[C@@H]1O,.,6%,.,-16,.,.,.,-0.5%,.
COCC(=O)O[C@]1(CCN(C)CCCc2nc3ccccc3[nH]2)CCc2cc(F)ccc2[C@@H]1C(C)C,4%,-8%,0&1,9,?,-4%&0%,15,-0.5%,-3%
CC(C)NC[C@H](O)c1cc(O)cc(O)c1,.,.,0,.,0%[24.8 µM],-2%,.,.,.
CCN(CC)CCOc1ccc(/C(=C(\Cl)c2ccccc2)c2ccccc2)cc1,.,0%,6&4,-17,?,.,1,0.1%,.
O=C(CSc1nc(-c2cccs2)cc(C(F)(F)F)n1)NCCCn1ccnc1,-16%,1%,-1,17,0%,-3%,9,0.0%,0%
O=C(Cn1cccc1)NCc1cccs1,0%,1%,4,-4,3%,0%,-3,-0.4%,-1%
COC(=O)c1[nH]c2ccc(C)cc2c1NC(=O)CN1CCN(Cc2ccccc2)CC1,-3%,1%,1,-18,1%[11.7 µM],1%,.,-1.1%,2%
COC(=O)c1ccc(CNC(=O)CSc2nc3sc(C)c(C)c3c(=O)n2C)o1,-3%,3%,1,3,-13%,0%,1,-0.2%,1%
Cc1cccc(NC(=O)c2cc(-c3ccc(C)c(C)c3O)n[nH]2)c1,.,-1%,2,4,8%,?,?,-0.5%,1%
